Bioassay records deposited in PubChem by National Center for Advancing Translational Sciences (NCATS).
Rango dissoc inh = prevents RanGTP from dissociating the Rango-importin beta complex; Biochemical FRET Rango-importin beta, RanGTP-induced dissociation; Potency, µM (titrated, usually from 46.1 µM), for the others: at the top dose activity change, negative = inhibition; 340,000 compounds, 0.071% hits; active means falling FRET ratio curve, often poorly fitted, with flat reads before Ran was added; inconclusive means other falling curves, or compound fluorescence or quenching; inactive means flat or rising ratio curve;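 also: potency is read from the fitted curve at half-maximal effect; % of control where 0% means no effect; nearly all actives have a fitted effect of over 45% in size; -100% = wells without RanGTP and RCC1; the record marks most hits as doubtful in a second field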
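Recombinant Rango FRET biosensor (EYFP–snurportin 1 IBB–cerulean CFP10) at 0.1 uM premixed with 0.25 uM importin beta in PBS, 1 mM DTT, 0.02% Tween-20, 0.1% BSA. Compound added 5 min; RanGTP-RCC1 (0.6 uM Ran, 2 mM GTP, 0.2 uM RCC1) then triggers release, read at 45 min.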
Rango complex inh = Rango-importin beta binding inhibition | Q14974 | Rango CFP/YFP FRET sensor + importin beta, 45 min | Potency, µM (doses to about 92.2 µM), for the others: at the top dose inhibition of complex formation | 340,000 compounds, 0.031% hits | AID 540263; active = rising FRET ratio curve, often small or poorly fitted; inconclusive = mostly compound fluorescence or quenching in the first reads; inactive = flat curves in all reads;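 also: potency is read from the fitted curve at half-maximal effect; 0% = DMSO wells and 100% = buffer wells lacking importin beta; nearly all actives have a fitted effect of over 15% in size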
Target sequence (Q14974 whole entry, looked up): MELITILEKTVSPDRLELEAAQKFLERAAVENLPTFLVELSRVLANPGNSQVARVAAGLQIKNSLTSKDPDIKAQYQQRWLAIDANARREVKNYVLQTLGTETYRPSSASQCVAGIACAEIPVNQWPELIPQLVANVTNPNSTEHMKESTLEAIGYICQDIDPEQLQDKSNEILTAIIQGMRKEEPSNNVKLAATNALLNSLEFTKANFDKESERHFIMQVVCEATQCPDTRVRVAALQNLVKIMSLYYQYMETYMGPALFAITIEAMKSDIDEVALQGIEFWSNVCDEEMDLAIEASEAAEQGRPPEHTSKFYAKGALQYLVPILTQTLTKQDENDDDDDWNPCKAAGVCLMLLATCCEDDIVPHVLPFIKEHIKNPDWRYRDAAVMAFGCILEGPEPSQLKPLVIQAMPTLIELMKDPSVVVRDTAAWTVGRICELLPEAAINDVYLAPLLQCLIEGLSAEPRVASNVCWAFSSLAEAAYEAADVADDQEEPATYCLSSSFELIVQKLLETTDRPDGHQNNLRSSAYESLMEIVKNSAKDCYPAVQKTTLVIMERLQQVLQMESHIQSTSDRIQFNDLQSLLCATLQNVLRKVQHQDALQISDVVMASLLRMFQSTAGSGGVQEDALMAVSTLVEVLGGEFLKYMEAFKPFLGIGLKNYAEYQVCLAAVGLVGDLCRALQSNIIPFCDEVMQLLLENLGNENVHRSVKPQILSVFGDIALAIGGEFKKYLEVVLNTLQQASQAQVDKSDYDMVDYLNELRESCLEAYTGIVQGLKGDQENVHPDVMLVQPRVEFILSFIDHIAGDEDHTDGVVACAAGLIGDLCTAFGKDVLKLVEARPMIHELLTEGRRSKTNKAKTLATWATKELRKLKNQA
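FRET biosensor (snurportin 1 IBB flanked by EYFP and cerulean), 50 nM, with compound 5 min, then 0.125 microM importin beta in PBS, 1 mM DTT, 0.02% Tween-20, 0.1% BSA. CFP/YFP ratio read after 45 min at room temperature; pre-read flags interference.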
GLA inh pH 4.5 = blocks human alpha-galactosidase A at pH 4.5; 230,000 tested, under 10 active; AID 1467; P06280; purified enzyme, 4-MU-alpha-Gal fluorescence, pH 4.5; activity change, negative = inhibition, % at 105 µM; inconclusive = small, poorly fitted or top-dose-only inhibition, or a rising curve; inactive = flat fitted curve, though single readings scatter; no compound was filed as active;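 also: 0% = full activity with enzyme and -100% = basal without enzyme; dose as in the result columns while the protocol names 77 µM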
miR-21 reporter = raises the signal of a miR-21 reporter; HeLa miR-21 FLuc reporter, luciferase, 48 h; Potency, µM (series often up to 38.3 µM), without a hit: at the highest dose reporter change, positive = more light; 340,000 tested, under 10 active; AID 2288; active = well fitted rising curve with a large enough effect; inconclusive = small, poorly fitted or top-dose-only effect; inactive = no such curve, though single readings can be large or run the other way;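 also: % of control where 0% means no effect; miR-21 action dims this reporter so a rising signal means less miR-21 action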
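HeLa cells stably expressing CMV-driven firefly luciferase with a downstream miR-21 binding sequence, endogenously expressing miR-21, were treated with titrations (up to about 40uM final) for 48 hours at 37 degree Celsius. Luciferase luminescence was read after lysis.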
* marks the source's active call; other numbers are inactive results; ? = inconclusive; · = not tested or not shown; & = joins results of further samples; [ ] = remark or other dose. Only part of the results is shown (hit frequency here may not be typical).

Start of the data: the first six entries as a preview:
SMILES	Rango dissoc inh	Rango complex inh	GLA inh pH 4.5	miR-21 reporter
Cc1cccc(-c2nsc(SCC(=O)Nc3cc(C)on3)n2)c1	-5%	0.1%	-3	-22%
COc1ccc(CNC(=O)C2CCC(=O)N2C(C)C)c(OC)c1 (stereo not given)	-9%	?	0	0%
CCOC(=O)c1sc(NC(=O)COC(=O)C(CCSC)NC(C)=O)nc1C (stereo not given)	-21%	-2.9%	0	-8%
CCCn1c(SCC(=O)Nc2ccccc2Cl)n[nH]c1=O	5%	-0.6%	4	0%
Cc1ccc(C(=O)OCC(=O)N2CCOCC2)c(C)c1	28%	1.5%	·	-19%
C/C(=N\Nc1nc(N)cc(Cl)n1)c1cccc(N)c1	0%	-0.1%	-2	-44%

Main list (from the top)
SMILES	Rango dissoc inh	Rango complex inh	GLA inh pH 4.5	miR-21 reporter
Cc1cccc(-c2nsc(SCC(=O)Nc3cc(C)on3)n2)c1	-5%	0.1%	-3	-22%
COc1ccc(CNC(=O)C2CCC(=O)N2C(C)C)c(OC)c1 (stereo not given)	-9%	?	0	0%
CCOC(=O)c1sc(NC(=O)COC(=O)C(CCSC)NC(C)=O)nc1C (stereo not given)	-21%	-2.9%	0	-8%
CCCn1c(SCC(=O)Nc2ccccc2Cl)n[nH]c1=O	5%	-0.6%	4	0%
Cc1ccc(C(=O)OCC(=O)N2CCOCC2)c(C)c1	28%	1.5%	·	-19%
C/C(=N\Nc1nc(N)cc(Cl)n1)c1cccc(N)c1	0%	-0.1%	-2	-44%
COC(=O)c1ccc(COc2ccc(-c3nnn(CC(N)=O)n3)cc2)cc1	16%	-1.1%	3	-4%
CCNC(=O)CC(=O)Nc1ccccc1C(=O)O	-7%	1.6%	-3	-1%
O=C(NCCO)c1ccc(CSc2nc3ccccc3[nH]2)cc1	-9%	2.3%	9	-41%
COC(=O)c1cc(Br)c(=O)n(Cc2ccc3c(c2)OCO3)c1	3%	5.1%	-14	-15%
Cc1cc(C)c(C#N)c(SCC(=O)Nc2ccccc2)n1	2%	3.5%	8	-51%
COc1ccc(Cl)cc1NC(=O)CSc1nnc(Cn2c(=O)sc3ccccc32)n1C	-4%	1.2%	6	-8%
O=C(CN(C(=O)CCNC(=O)c1ccco1)c1ccccc1)NC1CCCC1	-18%	-1.4%	-5	-7%
COC(=O)c1ccc(N2CCN(S(=O)(=O)c3ccc(Br)cc3)CC2)c([N+](=O)[O-])c1	2%	3.7%	-13	-1%
C(=C\c1ccccc1)/C=N/n1cnnc1	7%	0.9%	2	-6%
O=C(CSc1ncn(-c2ccccc2)n1)Nc1nccs1	-2%	-1.2%	7	-5%
O=C(OCc1ccccc1)N1CCC2CC1c1cc(NCCc3ccccc3)ccc12 (stereo not given)	6%	-1.1%	·	·
CCCCN(C(=O)c1ccc(C)c(S(=O)(=O)N2CCOCC2)c1)c1c(N)n(CC(C)C)c(=O)[nH]c1=O	-12%	-0.9%	·	·
COc1ccc(S(=O)(=O)NC(C)C(=O)NCC2CCCO2)cc1OC (stereo not given)	1%	-1.2%	·	10%
S=C(NCCc1ccccc1)Nc1ccccc1Cl	10%	?	6	-33%
O=C(Nc1ccccc1)N(C1=NCCC1)c1ccccc1	10%	-0.7%	-8	-5%
COc1nc(NS(=O)(=O)c2ccc(C)cc2)nc(C)c1Cl	15%	-2.3%	-1	-7%
CCN(NC(=O)C(O)(c1ccc(F)cc1)c1ccc(F)cc1)C(=O)c1ccccc1	-10%	-1.6%	-10	-2%
CCOC(=O)N1CCN(C(=O)c2ccccc2N(Cc2ccccc2)S(=O)(=O)c2ccccc2)CC1	-4%	8.5%	·	7%
O=C(NCc1cccc(Cl)c1)c1cccc(S(=O)(=O)N2CCCCC2)c1	11%	0.8%	·	·
C/C(=N/NC(=O)c1ccc(-c2ccccc2)cc1)c1cc(O)cc(O)c1	0%	-1.1%	·	-18%
Cc1cc2nc3ccc(=[N+](C)C)cc-3sc2cc1N	12%	-0.5%	-5	?
Cc1ccc(N=C2N=C(N)c3ccccc32)c(C)c1	1%	-0.9%	-2	6%
CCC[C@H]1CC(=O)C=C(c2ccsc2)ON1C(=O)OC(C)(C)C	-15%	-2.1%	·	·
CCCC(=O)Nc1nnc(/C=C/c2ccccc2)s1	-2%	2.5%	·	-33%
COc1ccc(OC)c(CCNC(=O)CS(=O)(=O)Cc2nc(-c3ccc(C)cc3)oc2C)c1	-3%	-0.1%	-1	1%
CC(Sc1nnc(C(C)Oc2ccccc2F)o1)C(=O)NCc1ccc2c(c1)OCO2 (stereo not given)	0%	0.0%	·	·
C#CCOc1c(Br)cc(/C=C2/C(=O)ON=C2C)cc1OC	6%	0.3%	·	-3%
Cc1ccc(NCC(O)C(O)C(O)CO)c(N=Nc2ccccc2)c1C (stereo not given)	-25%	1.2%	-2	-4%
O=C(CCNS(=O)(=O)c1ccc(Br)s1)NCc1ccc2c(c1)OCO2	-6%	0.0%	-4[21.1 µM]	1%
Cc1cc(OCC(=O)OCC(=O)N(C)Cc2ccccc2C)ccc1Cl	2%	2.0%	·	·
C/C(=N/NC(=O)CNc1ccc(C)cc1)c1ccc(Cl)cc1	-2%	?	5	-7%
COc1ccc(NC(=S)N(CCCN2CCOCC2)Cc2cn(C)c3ccccc23)cc1OC	-6%	-1.1%	-20	-33%
COc1ccccc1CNC(=O)c1ccccc1NS(C)(=O)=O	2%	2.9%	5	-1%
C(=Cc1cccnc1)c1ccncc1	14%	-3.1%	·	·

Part of the list above in order of count of non-hydrogen atoms, low to high.
SMILES	Rango dissoc inh	Rango complex inh	GLA inh pH 4.5	miR-21 reporter
C#CCOc1c(Br)cc(/C=C2/C(=O)ON=C2C)cc1OC	6%	0.3%	·	-3%
COc1ccc(OC)c(CCNC(=O)CS(=O)(=O)Cc2nc(-c3ccc(C)cc3)oc2C)c1	-3%	-0.1%	-1	1%
COc1ccc(NC(=S)N(CCCN2CCOCC2)Cc2cn(C)c3ccccc23)cc1OC	-6%	-1.1%	-20	-33%

Other results follow:
SMILES	Rango dissoc inh	Rango complex inh	GLA inh pH 4.5	miR-21 reporter
Cc1cccc(NC(=O)CCCCC(=O)Nc2cccc(C)c2)c1	-9%	-1.1%	·	·
O=C(Nc1ccc(Cl)c(Cl)c1)N1CCSC1c1ccco1 (stereo not given)	-1%	-0.5%	-5	0%
Cc1nc2cc(NCc3nc4ccccc4n3Cc3ccccc3)ccc2n1C	-1%	3.9%	3	1%
CC1CCCC(C)N1C(=O)COC(=O)CNC(=O)c1ccc(Cl)cc1Cl (stereo not given)	-1%	-2.0%	·	·
O=C(NCc1ccc(F)cc1)C1CCCN1C(=O)NCc1ccccc1 (stereo not given)	-6%	-0.6%	2	-3%
NC(CSC(c1ccccc1)(c1ccccc1)c1cccc2ccccc12)C(=O)O (stereo not given)	9%	-2.2%	·	·
COc1cc(=O)[nH]c(SCc2c(F)c(F)c(F)c(F)c2F)n1	-8%	0.0%	-3	-17%
COc1cccc(Nc2nc(-c3sc(NC(=O)c4ccccc4)nc3C)cs2)c1	-14%	?	-4	11%
COc1ccc(C(=O)NC(=S)Nc2ccc3c(c2)Cc2ccccc2-3)cc1	3%	-1.4%	0	-5%
O=C(c1ccc2c(c1)N(Cc1ccccc1F)C(=O)c1ccccc1S2(=O)=O)N1CCCC1	-4%	2.0%	·	9%&5%
COc1ccc(C)cc1NC(=O)CCCNC(=O)Cn1cnc2sc(C)c(C)c2c1=O	2%	-1.9%	·	0%
Cc1nc2sccn2c(=O)c1S(=O)(=O)N1CCN(c2ccc(F)cc2)CC1	-8%	-0.5%	·	-2%&-3%
COc1ccc(C(=O)NC(=S)Nc2ccc3oc(=O)ccc3c2)cc1[N+](=O)[O-]	-11%	0.1%	·	0%
COc1ccc(OC)c(/C=C2\SC(=S)N(Cc3cccnc3)C2=O)c1	1%	?	-10	0%
CCOC(=O)C1CCN(C(=O)Nc2ccc3snnc3c2)CC1	-9%	-5.1%	1	19%
Fc1cccc(CO/N=C/c2c(-c3ccccc3)nc3ccc(Cl)cn23)c1	-13%	0.1%	-18	-4%
Cc1ccccc1C(=O)NC(=S)Nc1ccccc1C(F)(F)F	-14%	-3.9%	5	-4%
O=C(CCc1nnc2ccc(NCc3ccco3)nn12)N1CCN(c2ccccc2F)CC1	23%	0.1%	·	2%
CCN(CCCNC(=O)Cn1ncc2c([nH]c3ccc(C)cc32)c1=O)c1ccccc1	7%	4.6%	·	4%&0%
CCOC(=O)N1CCN(c2cc(NCCC(=O)O)c3c4c(onc24)-c2ccccc2C3=O)CC1	?	?	-3	-2%
Cc1ccccc1OCCCN1C(=O)C(=O)c2cccc(C)c21	-21%	9.8%	-3	-1%
CCOC(=O)c1c(NC(=O)c2cccs2)sc2c1CCC2	-6%	-1.7%	5	-3%
CN(c1ccccc1)S(=O)(=O)c1cccc(NC(=O)Cc2n[nH]c(=O)c3ccccc23)c1	-7%	2.3%	·	·
CCCCc1c(O)nc(SCC(=O)NCCc2ccc(OC)c(OC)c2)[nH]c1=O	-8%	1.0%	-5	0%
O=C(Cc1cccc(NC(=O)C2CCN(C(=O)CCc3ccccc3)CC2)c1)Nc1cccc(C(=O)N2CCOCC2)c1	-4%	-0.1%	·	·
COc1ccc(-n2nc(C(=O)Nc3ccc(OC)c(OC)c3)c3c4ccccc4n(C)c3c2=O)cc1	-8%	1.4%	-7	-18%
Cc1c(OCC(=O)NC2CC(C)(C)NC(C)(C)C2)ccc2c1oc(=O)c1ccccc12	-1%	0.9%	·	2%
COc1ccc(-c2nc(N3CCOCC3)nc3n[nH]c(N)c23)cc1	13%	1.0%	-8	20%
CCOc1ncccc1C(=O)Nc1ccc(F)c(F)c1	-2%	0.1%	2	-1%
COc1cc(-c2nnc(SCc3cc(=O)oc4cc(C)ccc34)o2)cc(OC)c1OC	8%	1.7%	-11	1%
CN1C2=NCCN2C(=O)c2ccccc21	2%	5.5%	9	-3%
Cn1c(SCc2nnc(-c3ccc(F)cc3)o2)nnc1C1COc2ccccc2O1 (stereo not given)	24%	-0.1%	3	-2%
CC(=O)NC(CC(=O)O)c1ccccc1 (stereo not given)	22%	-0.1%	9	2%
NC(=O)c1c(NC(=O)C2CCCO2)sc2c1CCCCC2 (stereo not given)	?	?	0	-27%
Cc1ccc2cc3cc(C(=O)NCCC(C)C)oc3nc2c1	-4%	-2.3%	0	-7%
O=S(=O)(NCC(c1ccc2c(c1)OCO2)N1CCN(c2ccccc2)CC1)c1ccccc1 (stereo not given)	?	-1.1%	·	·
O=C(CNCCc1ccc(Cl)cc1)Nc1ccc(C(=O)N2CCCCC2)cc1	8%	7.1%	·	4%
Cc1nc(-c2cc(C#N)c(Sc3cccc(C(F)(F)F)c3)nc2C)cs1	24%	-3.6%	5	3%
O=C(NN=C1CCCC1)c1cccc(O)c1	2%	-2.1%	·	-27%
Cc1ccc(-c2nc(N3CCOCC3)sc2C(=O)N2CCOCC2)cc1	-13%	-0.7%	3	-8%
CCC(C(=O)NC1CCCC1)N(C(=O)Cn1nnc(-c2ccc(C)o2)n1)c1ccccc1OC (stereo not given)	1%	?	·	-1%
CC(C)CN(C(=O)COC(=O)c1ccccc1NCc1ccco1)c1c(N)n(Cc2ccccc2)c(=O)[nH]c1=O	5%	-1.5%	·	·
CC(C)OP(=O)(c1ccc(N(C)C)cc1)C(Nc1ccccc1)c1cccnc1 (stereo not given)	1%	4.4%	-10	0%
CCCC(Oc1ccc(Br)cc1)c1nc2c3cc(OC)c(OC)cc3nc(=S)n2[nH]1 (stereo not given)	5%	-2.2%	-7	2%
CCOc1ccccc1C1N(c2ccc(OC)cc2)C(=O)C2CCCN21 (stereo not given)	-4%	-1.9%	3	-11%
CC(C(=O)Nc1ccc(S(=O)(=O)N2CCCC2)cc1)N1CCN(C(=O)c2ccco2)CC1 (stereo not given)	-5%	0.0%	2	11%
O=C(CC(=O)Nc1nc(C23CC4CC(CC(C4)C2)C3)cs1)NCCO	13%	3.9%	1	2%
O=[N+]([O-])c1cccc(-c2nnc3ccccn23)c1	-6%	3.2%	-8	5%
O=C(NCc1ccccc1)C(=O)NCC1OCCN1S(=O)(=O)c1cccs1 (stereo not given)	-11%	0.4%	-18	-17%
